# Calb biofilm kill: mixtures killing C. albicans biofilm; AID 1242; inhibition, % at 7.6 µM; C. albicans biofilm persisters + clotrimazole, fluorescence viability; primary screen in compound mixtures of four per well; hit rate 0.02% among 120,000;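 active = inhibition above 30.3% in the primary screen of four-compound pools, then above 30% when the compound was retested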;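 note: compounds exposed to preformed 24 h biofilms for 48 h; the number belongs to the whole pool; some results filed as inactive read as strong as hits; inactives centre near 12; 0% = biofilm with clotrimazole alone and 100% = kill control; retested singly at about 60 µM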
#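 Test system: C. albicans CAF4-2 wild-type biofilms; buffer or medium: RPMI/MOPS medium, pH 7.0; schedule: 24 h biofilm formation, then 48 h compound exposure, 37 °C; detection: Alamar Blue fluorescence; measure: percent inhibition of biofilm viability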
# * hit, by the source's call. An excerpt; the hit share may differ from the screen's.
SMILES,Calb biofilm kill
CCc1nc(NC(=O)NS(=O)(=O)c2ccccc2C(=O)OC)nc(OC)n1,6
CCN1CCN(c2cc(C)c3cc(NC(=S)N(CC)CC)ccc3n2)CC1,12
Cc1cccc2cc(C#N)c(NCCCNS(=O)(=O)c3ccc(Cl)cc3)nc12,13
COc1ccc(CN2CCOC2=O)cc1OC,18
CC1(C)CN(c2ccc(F)cc2)C1=O,10
Cc1ccc(-c2nc3ccc([N+](=O)[O-])cc3[nH]2)cc1,6
COc1cccc(C2CC(c3ccccc3)=NN2S(=O)(=O)c2ccccc2)c1OC (configuration not stated),0
COc1ccc2[nH]c(C(=O)NCc3ccc4c(c3)OCO4)cc2c1,23
CN(Cc1cccnc1)Cc1cn(C)nc1-c1cccc(Cl)c1,20
COCCCn1c(SCCc2ccccc2)nc2cc(OC)c(OC)cc2c1=N,7

# Reprinted at random: five compounds from above, in no set order.
SMILES,Calb biofilm kill
CN(Cc1cccnc1)Cc1cn(C)nc1-c1cccc(Cl)c1,20
CCN1CCN(c2cc(C)c3cc(NC(=S)N(CC)CC)ccc3n2)CC1,12
Cc1cccc2cc(C#N)c(NCCCNS(=O)(=O)c3ccc(Cl)cc3)nc12,13
COCCCn1c(SCCc2ccccc2)nc2cc(OC)c(OC)cc2c1=N,7
CCc1nc(NC(=O)NS(=O)(=O)c2ccccc2C(=O)OC)nc(OC)n1,6

# Continued:
SMILES,Calb biofilm kill
COc1ccc(/C=N/NC(=S)Nc2c(C)n(C)n(-c3ccccc3)c2=O)cc1OC,16
CSc1nc(C)cc(SCC(=O)Nc2ccc(Cl)cc2Cl)n1,14
O=C1CN(C(=O)CSc2nc3ccccc3n2CCc2ccccc2)c2ccccc2N1,11
O=C(Nc1ccccc1-c1nnn(CC(=O)N2CCOCC2)n1)c1ccc(F)cc1,-5
COC(=O)c1cc2occc2n1Cc1nc(-c2ccc(Cl)cc2)oc1C,12
COC(=O)CCN1CCN(S(=O)(=O)c2cccc(Br)c2)CC1,11
CCCCN(C)CCCNC(=O)CN1C(=O)CSc2ccc(S(=O)(=O)N3CCOCC3)cc21,11
O=C(Nc1cccc(C(F)(F)F)c1)C(Sc1ncnc2ccccc12)c1ccccc1 (configuration not stated),16
Cc1ccc(CC2CC(=O)N(c3ncccn3)C2=O)cc1 (configuration not stated),17
CN(C)c1ccc(C2CC(=O)C=C(Nc3ccccc3N)C2)cc1 (configuration not stated),2
COc1ccccc1N1CCN(/N=C\c2sccc2C)CC1,10
COc1ccc(CCNC(=O)c2ccc(C)s2)cc1OC,3
O=C(NNC(=S)Nc1ccc(F)cc1)[C@H]1C[C@@H]1c1ccccc1,23
O=C(N/N=C/c1c[nH]c2c1ccc1ccccc12)c1ccc([N+](=O)[O-])cc1,18
CCOC(=O)Nc1ccccc1C(=O)Nc1cc(C)cc(C)c1,21
COc1ccc(CCNC(=O)C2CCC(CNS(=O)(=O)c3ccccc3)CC2)cc1OC (configuration not stated),10
CCN(CC)S(=O)(=O)c1ccc(NC(=O)COC(=O)c2c[nH]c(=O)[nH]c2=O)cc1,13
COc1ccccc1C1CCN(C(=O)c2ccco2)CC1,21
CN(C)/C=N/c1nc(Sc2ccc(C(F)(F)F)cc2[N+](=O)[O-])n[nH]1,13
COC(=O)CSc1ccnc2cc(Cl)ccc12,21
O=C(Nc1ccccc1N1CCCC1)c1ccc(Cl)cc1Cl,37
CC(=O)Nc1ccc(-c2csc(NC(C)c3ccccc3)n2)cc1 (configuration not stated),12
Cc1cccnc1NC(=O)Cn1nc([N+](=O)[O-])cc1C,23
CCn1c(CNC(=O)Cc2ccc(OC)cc2)nnc1SCC(=O)c1ccccc1,15
Cc1ccc(CNC(=O)C2CC3Cn4c(nc5cc(C)c(C)cc54)C3N2C)o1 (configuration not stated),14
COc1ccc(CCCC(=O)N/N=C/c2ccccc2OC)cc1,6
O=C(O)c1cc(Cl)ccc1-c1ccc(/C=C/c2cc(C(F)(F)F)[nH]c(=O)n2)o1,9
CN(C)S(=O)(=O)c1cc(NC(=O)CN2CCN(c3ccccc3F)CC2)ccc1Cl,7
CC(NCCC1(Cc2ccccc2Cl)CCOC(C)(C)C1)c1cccs1 (configuration not stated),11
O=C(Nc1cccnc1)C1CCC(CNS(=O)(=O)c2cccc3nsnc23)CC1 (configuration not stated),5
COc1ccccc1Cn1c(=O)c2ccccc2n2c(SCC(=O)N3CCCCC3)nnc12,24
Cn1c(SCC(=O)N/N=C/c2cc([N+](=O)[O-])ccc2O)nnc1-c1ccccc1,4
CCOP(=O)(OCC)c1nc(-c2cccc3ccccc23)oc1N1CCCCC1,14
CCCOc1ccc(CNC(=O)Cn2ncc3ccccc32)cc1,14
O=c1cc(NCCc2ccccc2)c2ccccc2o1,12
CCC(Sc1nc(C)cc(C)n1)C(=O)Nc1ccc(S(N)(=O)=O)cc1 (configuration not stated),25
N#C/C(=C/c1cn(-c2ccccc2)nc1-c1cccc(OCc2ccccc2)c1)C(=O)NCCCn1ccnc1,5
Cc1ccnc(SCCn2c(N3CCCCC3)nc3c2c(=O)n(C)c(=O)n3C)n1,6
CCOC(=O)c1cc(C)sc1/N=C/C1=C(O)CCCC1=O,21
CCOC(=O)NC(=O)c1cn(Nc2ccccc2C(F)(F)F)c(=O)[nH]c1=O,23
COc1ccccc1C(=O)N1CCN(Cc2nc(CC3CC3)no2)CC1,11
O=C(NCCN1CCOCC1)c1ccc2c(c1)N(Cc1ccc(Cl)cc1)CCS2,-21
Cc1ccccc1CNC(=O)CC1C(=O)NCCN1CC1CCCCC1 (configuration not stated),12
CCCC(=O)Nc1ccc(C(=O)NNC(=O)c2cccc([N+](=O)[O-])c2)cc1,13
COc1c([N+](=O)[O-])c(=O)n(-c2ccccc2)c2ccccc12,4
Cc1nc(S/C(=C/c2ccc(OCc3ccc(C(=O)O)cc3)cc2)C(=O)O)n[nH]1,-6
CCCn1nc(C(=O)OCC(=O)NC(C)c2ccccc2)c2ccccc2c1=O (configuration not stated),5
O=C(CC1C(=O)OCC2CCCCN21)Nc1ccccc1C(F)(F)F (configuration not stated),10
Cc1nnc(NC(=O)c2ccc(S(=O)(=O)N3CCOCC3)cc2)s1,27
C/C(CCc1ccccc1)=N\NC(=O)CC(=O)NCCc1ccccc1,6

# (more compounds)
SMILES,Calb biofilm kill
CCOc1ccc(N2CC(O)(c3ccc(F)cc3)[N+]3=C2CCCC3)cc1 (configuration not stated),14
CC(=O)OCC1CCCC2=C(C)C(=O)CCC21COC(C)=O (configuration not stated),6
Cc1cccc2cc(C3CC(c4ccco4)=NN3S(=O)(=O)c3ccccc3)c(Cl)nc12 (configuration not stated),9
Nc1ccc(C(=O)OCC(=O)N2c3ccccc3Sc3ccccc32)cc1[N+](=O)[O-],14
CC12CCC(c3nnc(SCc4ccc(Cl)cc4)nc31)C2(C)C (configuration not stated),8
CN(C)c1ccc(N2C(=O)CC(Sc3ccccc3C(=O)O)C2=O)cc1 (configuration not stated),16
CN(Cc1cn(C)nc1-c1ccc(Oc2ccccc2)cc1)Cc1cnc2ccccn12,-2
O=C(N/N=C/c1ccc(O)cc1)c1cccc(C(F)(F)F)c1,12
CCN(CC)C(=O)CN(c1cccc(Br)c1)S(C)(=O)=O,12
CC(NC(=S)Nc1ccccc1OC(F)F)C(C)(C)C (configuration not stated),17
O=C(CSCc1cnn(-c2ccccc2)c1-n1cccc1)NCc1ccccn1,19
O=C(NCc1ccccn1)c1nc(-c2ccc(C(F)(F)F)cc2)no1,2
CCc1ccc(NC(=O)Cn2nnc(-c3ccc(C)cc3-n3cnnn3)n2)cc1,13
COc1ccc(C)cc1Nc1nc(-c2c(C)[nH]c3ccccc23)cs1,10
Cc1nn(Cc2ccccc2)c(Cl)c1C(=O)NC(C)(C)C,9
COc1cccc2c1OCC(CN1CCN(C3CCCCC3)C(CCO)C1)=C2 (configuration not stated),26
CN1CCCc2cc(C=O)ccc21,13
Cc1ccc(S(=O)(=O)N2CCOCC2)cc1C(=O)Nc1ccc(S(=O)(=O)Nc2nccs2)cc1,17
CCOc1ccc(Cl)cc1CNc1nnnn1C,15
COc1cc(C2NC(=O)NC3=C2C(=O)OC3)cc(OC)c1OC (configuration not stated),13

# The closing four records of the section above are carried over, then new ones follow.
SMILES,Calb biofilm kill
CN1CCCc2cc(C=O)ccc21,13
Cc1ccc(S(=O)(=O)N2CCOCC2)cc1C(=O)Nc1ccc(S(=O)(=O)Nc2nccs2)cc1,17
CCOc1ccc(Cl)cc1CNc1nnnn1C,15
COc1cc(C2NC(=O)NC3=C2C(=O)OC3)cc(OC)c1OC (configuration not stated),13
COc1ccc2cc(S(=O)(=O)c3ccccc3)c(=O)oc2c1,16
CN(C)/C=C1\C(=O)N(C)N=C1C(F)(F)F,2
Cc1ccc2nc(-c3ccc(NC(=O)CN4CCN(c5ccccn5)CC4)cc3)sc2c1,23
Cc1nn(-c2ccccc2)c(N2CCCC2)c1/C=C1\N=C(c2ccccc2)OC1=O,8
COc1ccc(CCC(=O)Nc2cccc(S(=O)(=O)N(C)C)c2)cc1OC,-13
O=C(CCCC(=O)OCC(Cl)=C(Cl)Cl)Nc1cccc2ccccc12,9
CC(=O)NCC(=O)OCC(=O)c1ccc(Cl)cc1,24
CCN(CC)CCCNC(=O)c1cc2c(Cl)nc3ccccc3c2s1,18
CN(C)/C=N/c1nc2ncc(-c3ccc(Cl)cc3)c(/N=C/N(C)C)n2n1,-5
CCOC(=O)CSc1nc(C)cc2c1C(=O)OC2,-5

# 4 of these compounds in another layout.
CN(C)/C=N/c1nc(Sc2ccc(C(F)(F)F)cc2[N+](=O)[O-])n[nH]1
  Calb biofilm kill = 13

COC(=O)CSc1ccnc2cc(Cl)ccc12
  Calb biofilm kill = 21

O=C(Nc1ccccc1N1CCCC1)c1ccc(Cl)cc1Cl
  Calb biofilm kill = 37

CC(=O)Nc1ccc(-c2csc(NC(C)c3ccccc3)n2)cc1 (configuration not stated)
  Calb biofilm kill = 12

# Next records:
SMILES,Calb biofilm kill
O=C(O)COc1ccc2c3c(c(=O)oc2c1)CCCC3,9
Cn1c(N)c(C(=O)COC(=O)/C=C/c2ccc(S(=O)(=O)N3CCOCC3)cc2)c(=O)n(C)c1=O,1
O=C1CC(NCCc2ccccc2)C(=O)N1CCc1ccccc1 (configuration not stated),7
COc1ccc(C(=O)COc2ccc(F)cc2)c(O)c1,20
O=Cc1sc(Nc2ccccc2)nc1Cl,8
COC(=O)CSc1[nH]c2cc(C)ccc2c1[N+](=O)[O-],-2
Cc1ccccc1-n1c(SCC(=O)N/N=C/c2ccccc2OCC(=O)O)nc2ccccc2c1=O,4
O=C(NCCCN1CCOCC1)c1sc2cc(Cl)ccc2c1Cl,16
Cc1ccc(N2NC(=O)/C(=C/c3ccc(-c4ccc(Cl)c(C(=O)O)c4)o3)C2=O)cc1C,18
Cc1ccccc1NCC(=O)N/N=C/c1ccc([N+](=O)[O-])cc1,-12
CC1(C)C(=O)OC(c2cccc([N+](=O)[O-])c2)C2(CCCCC2)C1=O (configuration not stated),4
Brc1ccc(N/N=C(/N=Nc2nn[nH]n2)c2ccccc2)cc1,9
CCC(=O)NC(=S)Nc1ccc(NC(=O)c2ccc(C)c([N+](=O)[O-])c2)cc1,12
COc1ccc(CCNC(=O)C(C)Sc2ccc(C)cc2)cc1OC (configuration not stated),18
N#Cc1ccc(NC(=O)COC(=O)C2Cc3ccccc3CN2C(=O)c2ccccc2)cc1 (configuration not stated),19
O=C(Nc1ccnc(-c2ccncc2)n1)c1cccs1,-3
Cc1sc2c(c1C)CN(CCN1CCOCC1)CN2C(=O)c1ccccc1,16
Fc1ccc(CNC(=S)NC2CCCCCC2)cc1,-6
CC(C)CNC(=O)CC(=O)N/N=C/c1ccc(F)cc1,11
NS(=O)(=O)c1ccc(N=Cc2ccc(Br)s2)cc1,19
COc1ccc(Nc2ncc(F)c(N3CCOCC3)n2)cc1,11
CN1CCN(C2=Nc3c(Cl)cc(Cl)c4cccc2c34)CC1,8
Cc1c(N2C(=O)C(=O)/C(=C(/O)c3ccc(Cl)cc3)C2c2ccccc2)c(=O)n(-c2ccccc2)n1C (configuration not stated),24
O=C(O)c1ccccc1Sc1ccccc1S(=O)(=O)NC1CCCCC1,13
CCc1cccc2sc(NC(=O)c3ccc(N4C(=O)CCC4=O)cc3)nc12,15
S=C(Nc1ccc(Oc2ccccc2)cc1)N1CCN(c2ccccn2)CC1,9
COC(=O)c1ccc(Oc2c(Cl)cccc2[N+](=O)[O-])cc1,12
Cc1ccc(S(=O)(=O)NCc2ccc(C(=O)NCCN(Cc3ccccc3)C(C)C)cc2)cc1,-6
O=[N+]([O-])c1ccc(Sc2n[nH]c(-c3ccncc3)n2)nc1,15
C=CCn1c(SCC(=O)Nc2ccc(-c3nc4ccc(C)cc4s3)cc2)nnc1-c1ccccc1,14
COc1ccc(NC(=O)COc2ccc3oc(=O)cc(C)c3c2)cc1,8
Cc1cc(NS(=O)(=O)c2ccc(N)cc2)no1,30
COCCOC(=O)/C(=C\c1cc(C(C)(C)C)c(O)c(C(C)(C)C)c1)C(C)=O,19
O=C(CCN1C(=O)c2ccccc2S1(=O)=O)Nc1ccccc1,8
CCCCNC(=O)c1onc(CSc2ccncc2)c1C(=O)NCCCC,9
COc1ccc2c(c1)[nH]c1c(=O)n(/N=C/C3C(C)C=C(C)CC3C)c(=O)[nH]c12 (configuration not stated),12
O=C(NN1S(=O)(=O)c2ccccc2S1(=O)=O)c1ccc(Br)cc1,9
C/C(=N\Nc1ccc(F)cc1F)c1ccc(Br)s1,8
COc1ccc(S(=O)(=O)N(CC(=O)Nc2ccc(S(=O)(=O)N3CCOCC3)cc2)Cc2ccc(F)cc2)cc1,-9
COC(=O)[C@@H](N)CS,6

# High-throughput results (PubChem)
